Assay outcomes as filed in PubChem.
BJeLR lethal: kills HRASV12-expressing BJeLR cells; inhibition, % (no concentration beside the values); BJeLR (HRASV12) viability, CellTiter-Glo ATP luminescence, 48 h; reference of the scale not given here; 300,000 tested, 0.17% active; AID 1554;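 active = replicate mean above 50%; inconclusive = above 50% but judged a plate artefact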;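 note: 50 nL library stock added to about 25 µL; numbers are from one replicate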
Mtb hypoxia rep: inhibitors of hypoxia-regulated fluorescent reporter in Mycobacterium tuberculosis; M. tuberculosis hypoxia-regulated fluorescent reporter, fluorescence; fluorescence inhibition, % (test concentration not listed); 300,000 tested, 0.1% active; AID 1159583;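 active = 35 to 45% if threefold the growth effect, above 45% if 1.5-fold the growth effect; inactive = the rest, general growth blockers included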;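 note: wells of about 50 µL received 100 nL stock; 0% = vehicle wells and 100% = reference inhibitor wells; whole bacteria with a GFP reporter of the hypoxia response; strong numbers were not always called active; many hits fall short of the cut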
PrP UTR inh: suppresses PrP 5' UTR mRNA reporter expression; cell-based PrP 5' UTR mRNA reporter, plate reader; inhibition, % (test concentration not listed); 340,000 tested, 0.35% active;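 active = every replicate at 50% or more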;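 note: 0 = median of the neutral control wells; tested in H4 reporter cells; numbers are from one replicate; inactives centre near -14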
Autofluor counter: compound fluorescence in toxin protease inhibitor counterscreen | compound autofluorescence counterscreen, microsphere flow cytometry; stronger effect = higher value | fluorescence intensity (test concentration not listed) | 360,000 tested, 3.1% active | AID 624483;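 active = at least 3 SD above the mean of all compounds, about 16000 in these data; inconclusive = too few beads counted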;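 note: 100 nL of 1 mM stock went into each well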
Sa RN4220 lethal: kills Staphylococcus aureus RN4220 | S. aureus RN4220 growth, OD600, 16 h | inhibition, % (no concentration beside the values) | 330,000 tested, 0.33% active | AID 1259311;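 active = z-score of -3 or lower and OD600 up to 0.18 on both plates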;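 note: plate controls were untreated cells for no effect and reference antibiotic for full effect; stock transfer was 100 nL into about 80 µL; one replicate is shown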
Sa ugtP lethal: compounds lethal to S. aureus RN4220 ugtP deletion mutant | OD600 growth, 16 h; some inactives read as strong as hits | AID 1259309 | 330,000 tested, 0.54% active | growth inhibition, % (concentration not given with the values);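 active = z-score under -3 and OD600 up to 0.15 on both plates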;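 note: plate controls were untreated wells for no effect and antibiotic for full effect; wells of about 80 µL received 100 nL stock; the first replicate is given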
Mtb hypoxia rep growth: further read-out of Mtb hypoxia rep, marked with its call; growth inhibition, %; measured here: M. tuberculosis growth (absorbance);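 0% = vehicle and 100% = reference antibiotic; read after six days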
* marks the source's active call; other numbers are inactive results; ? = inconclusive; / = not tested or not shown.

SMILES	BJeLR lethal	Mtb hypoxia rep	Mtb hypoxia rep growth	PrP UTR inh	Autofluor counter	Sa RN4220 lethal	Sa ugtP lethal
O=C1CN(C(=O)CC2C(=O)NCCN2Cc2ccccc2C(F)(F)F)CCN1 (stereo unspecified)	-6.8	8.0	-17.0	-10.3	5868	2.7	8.3
Cc1ccc(NC(=O)C(C)Sc2nc3nc(C)cc(C)n3n2)cc1 (stereo unspecified)	/	2.4	3.4	-8.6	/	6.8	4.2
N/C(=N\OCC(=O)Nc1ccc(F)c(Cl)c1)c1ccccc1	/	6.5	2.9	1.9	4123	4.7	3.4
COc1ccc(S(=O)(=O)N2CCCCCC2)cc1Br	4.9	13.2	6.3	-2.0	3134	3.8	0.9
CC1CCCCC1NC(=S)Nc1ccc(SC(F)F)cc1 (stereo unspecified)	-5.0	/	/	-14.4	2593	53.9	66.3
Cc1cc(C)c(C#N)c(SCc2c(F)cccc2[N+](=O)[O-])n1	-8.9	16.8	11.8	-12.6	1978	3.9	2.7
Cc1csc(/C(C#N)=N/O)n1	14.6	/	/	3.4	7499	/	/
CCOC(=O)C1=C(COC(=O)/C=C/c2ccco2)NC(=O)NC1C (stereo unspecified)	-14.1	-2.1	-2.5	7.9	5764	3.5	-0.1
Cc1cc(S(=O)(=O)Nc2ccc(C(=O)NCCCN3CCCC3=O)cc2)ccc1F	-4.2	9.2	8.3	-16.4	6834	3.7	4.1
COC(=O)C1C(O)=C(C=Nc2ccc3ccccc3c2)C(=O)CC1(C)C (stereo unspecified)	4.4	1.7	-8.4	80.4*	4431	5.7	1.0
O=C(NNc1nc2ccccc2s1)Nc1ccc(Cl)c(Cl)c1	-2.9	/	/	-16.6	4039	/	/
CC(C)NC(=O)NC(=O)COc1c(F)c(F)cc(F)c1F	-5.6	/	/	-22.2	2473	4.4	-2.9
CC1CCCN(C(=O)Cn2nnc(-c3ccc(F)cc3)n2)C1 (stereo unspecified)	-1.0	9.7	6.6	-11.2	3427	3.8	12.2
CC1Cc2ccccc2N1C(=O)CSc1ccccc1 (stereo unspecified)	8.3	5.9	5.0	-61.5	10108	3.1	4.4
COc1ccc(-c2c(C3C4C=CCC(C)C4C(=O)N3Cc3ccccc3)ccc3ccccc23)cc1OC (stereo unspecified)	/	0.4	7.2	/	/	-8.6	2.9
Cc1ccc(CN(C)C(=O)CN2C(=O)NC3(CCCc4ccccc43)C2=O)c(C)c1 (stereo unspecified)	/	5.4	1.0	3.2	?	4.4	2.5
COc1ccc(-c2c(C(=O)O)nc3ccccc3c2C(=O)O)cc1	2.0	5.0	1.7	-5.3	16308*	6.4	10.3
CC(NCC(O)COc1ccc(Br)cc1)c1ccccc1 (stereo unspecified)	-4.3	-6.7	-4.6	-0.9	5960	-2.4	-7.6
Cc1cc(OCc2cc(C(=O)N(C)C3CCOC3)no2)cc(C)c1Cl (stereo unspecified)	13.7	-7.4	4.3	-101.9	5552	-0.6	-8.6
CCN(CC)CCCN(Cc1cc2ccc(C)c(C)c2[nH]c1=O)C(=O)NC1CCCCC1	4.2	-8.3	-3.5	-18.8	8256	1.3	-0.7
COc1ccccc1/C(O)=C(\C#N)c1nc2ccccc2[nH]1	-4.8	-16.1	-6.1	-18.5	4739	6.2	1.0
Cc1noc(C)c1S(=O)(=O)N(C)C[C@H]1Oc2c(NS(=O)(=O)c3cn(C)cn3)cccc2C(=O)N([C@H](C)CO)C[C@@H]1C	/	-3.9	-3.6	-2.1	4098	0.5	0.5
CCOc1ccc(NC(=O)CC2C(=O)N(c3cccc(OC)c3)C(=O)N2CCOC)cc1 (stereo unspecified)	2.8	3.7	2.9	-6.3	4357	10.2	3.4
Cc1occc1C(=O)NNC(=O)c1nn(C)c(=O)c2ccccc12	2.9	5.8	-3.8	-16.9	2599	6.6	7.2
CCOC(=O)CC1C(=O)NCCN1C(=O)c1ccc(Cl)cc1Cl (stereo unspecified)	-0.9	3.8	1.3	-9.9	3885	0.6	1.5
COc1ccc(C2C(C#N)=C(N)Oc3n[nH]c(-c4ccccn4)c32)c(OC)c1OC (stereo unspecified)	-3.6	7.5	2.4	-4.0	3199	-9.0	-6.2
CCc1ccc(NC(=O)CSc2ccc(-c3cccnc3)nn2)cc1	-8.0	10.4	-2.9	-17.3	4227	2.2	20.4
Cc1ccc(C)c(S(=O)(=O)NN=Cc2ccc(F)cc2)c1	/	17.6	-2.0	/	/	9.3	-1.0
COc1cc(O)c(C(CC(=O)N2CCN(c3ccccc3)CC2)c2cc(OC)c(OC)c(OC)c2)c(OC)c1 (stereo unspecified)	6.4	-22.0	-1.4	-1.5	3770	0.6	-2.5
O=C(N/N=C/C=C\c1ccco1)c1cccnc1	-1.3	/	/	-12.7	3311	/	/

Another view of part of the listing above.
CCc1ccc(NC(=O)CSc2ccc(-c3cccnc3)nn2)cc1
  BJeLR lethal: -8.0; Mtb hypoxia rep: 10.4; Mtb hypoxia rep growth: -2.9; PrP UTR inh: -17.3; Autofluor counter: 4227; Sa RN4220 lethal: 2.2; Sa ugtP lethal: 20.4

Cc1cc(OCc2cc(C(=O)N(C)C3CCOC3)no2)cc(C)c1Cl (stereo unspecified)
  BJeLR lethal: 13.7; Mtb hypoxia rep: -7.4; Mtb hypoxia rep growth: 4.3; PrP UTR inh: -101.9; Autofluor counter: 5552; Sa RN4220 lethal: -0.6; Sa ugtP lethal: -8.6

CCOc1ccc(NC(=O)CC2C(=O)N(c3cccc(OC)c3)C(=O)N2CCOC)cc1 (stereo unspecified)
  BJeLR lethal: 2.8; Mtb hypoxia rep: 3.7; Mtb hypoxia rep growth: 2.9; PrP UTR inh: -6.3; Autofluor counter: 4357; Sa RN4220 lethal: 10.2; Sa ugtP lethal: 3.4

The list continues.
SMILES	BJeLR lethal	Mtb hypoxia rep	Mtb hypoxia rep growth	PrP UTR inh	Autofluor counter	Sa RN4220 lethal	Sa ugtP lethal
CCCc1cc(=O)oc2cc(C)cc(OCC(=O)O)c12	-1.5	-9.5	-9.0	-16.4	6455	-4.9	-4.7
COC(=O)[C@@H]1C[C@H]1[C@@H](NC(=O)c1cc(C)on1)c1ccccc1	13.6	/	/	-16.9	4353	/	/
COc1cc(C(=O)Nc2ccc(Br)cc2C(=O)c2ccccc2Cl)cc(OC)c1OC	-6.7	9.7	-1.3	-30.7	2056	-0.1	16.0
COc1ccccc1NC(=S)NNC(=O)c1nn(C)c(C)c1Br	-5.1	2.7	-3.5	-19.9	7380	4.1	-1.6
CSc1ccc(-c2ccco2)nn1	/	-3.6	8.0	-52.6	4301	-3.5	-1.8
Cc1nc2ccccc2n1CC(=O)NN=Cc1cccs1	/	-5.4	2.4	/	/	15.5	3.1
NC(=O)c1cccnc1Oc1cccc(Cl)c1	-21.5	3.7	0.1	-12.9	9245	7.5	1.1
COc1cc(OC)cc(C(=O)NNC(=O)C2CSC3(C)CCC(=O)N23)c1 (stereo unspecified)	/	4.1	-1.7	/	/	1.4	0.9
CCCCc1nc(SCC(=O)N2CCCC2)c2c(=O)n(C)c(=O)n(C)c2n1	-2.5	4.0	3.9	-6.4	4470	3.7	5.8
O=C(NCCCn1ccnc1)/C(=C\c1cccs1)NC(=O)c1ccco1	-11.6	7.9	9.4	-15.7	2348	3.0	4.4
CN(C)/C=C(\C(=O)c1ccc(Cl)cc1)c1nnnn1-c1ccc(Cl)cc1	-1.0	2.6	8.1	9.5	3351	6.0	-5.7
Cn1c(SCc2ccccc2[N+](=O)[O-])nnc1-c1cccnc1	-3.6	3.5	-11.2	-43.3	3502	0.2	-3.9
Cc1cccc(-c2nc3c(c(SCC(=O)N4CCOCC4)n2)Cc2c(CO)cnc(C)c2O3)c1	-0.8	3.0	13.2	0.1	4250	0.3	-1.1
COc1ccc(-n2nnnc2S(=O)(=O)CC(=O)N2CCCCC2)cc1	/	8.2	16.4	-20.5	5100	9.6	11.0
CCCN(CC(=O)Nc1ccccc1OC)CC(=O)c1c(N)n(Cc2ccccc2)c(=O)n(C)c1=O	/	6.9	-2.2	/	5638	6.7	-0.3
CCN(CC)S(=O)(=O)c1cccc(NC(=O)c2ccc(-n3nc(C)cc3C)cc2)c1	-1.7	12.7	3.3	-10.8	2139	-5.1	11.6
O=C(CCl)Nc1ccccc1C(=O)Nc1ccc2c(c1)OCO2	17.7	/	/	-53.5	4730	2.1	5.7
c1ccc(COC2COC3C(OCc4ccccc4)COC23)cc1 (stereo unspecified)	/	8.9	3.8	-10.6	3874	1.6	1.8
COC(=O)NN=Cc1cn(CC(C)COc2ccccc2)c2ccccc12 (stereo unspecified)	/	4.7	1.0	/	/	6.7	-9.3
CC(/C=N/n1cnnc1)=C\c1ccco1	-2.6	/	/	-9.4	?	/	/
O=C(COC(=O)/C=C/c1ccccc1Cl)NC(=O)Cc1ccccc1	-1.9	11.5	-4.2	1.1	1910	2.3	-1.1
CC(Cc1ccccc1)NCc1ccccc1O (stereo unspecified)	-2.4	-1.3	-7.7	-13.1	4835	9.9	3.4
O=C(COC(=O)C1CCC(=O)N1)Nc1ccccc1Br (stereo unspecified)	4.9	0.4	20.0	-7.6	4995	1.0	-4.4
O=C(CSc1ncnc2c1oc1ccccc12)NC1CCCCC1	9.0	8.8	7.5	-20.0	5892	0.4	-0.8
CC(C)OCCCN1CC(=O)N2[C@@H](Cc3c([nH]c4ccccc34)C2(C)C)C1=O	-2.8	15.2	5.6	-34.5	3221	2.2	1.3
O=C(CCC(=O)N1CCN(S(=O)(=O)c2ccc(Cl)cc2)CC1)NCc1ccccc1	-5.6	10.2	1.0	-4.9	2042	6.3	-1.4
O=C(CSc1ncccc1-c1nc2ccccc2[nH]1)NCc1ccco1	8.3	0.7	4.1	3.5	10742	-2.0	-2.0
Cc1ncc(C(=O)O)c(C(=O)O)c1N	2.1	9.3	-0.3	-18.7	3401	-0.9	4.6
COc1ccccc1-c1noc(Cn2cc(S(=O)(=O)N3CCCC3)ccc2=O)n1	/	5.3	-2.7	-13.1	3508	3.0	1.8
C=C1CC[C@@]2(O)[C@H]3Cc4ccc(O)c5c4[C@@]2(CCN3CC2CC2)[C@H]1O5	-3.2	/	/	-9.2	5757	/	/
Cc1cc(C)c(NC(=O)CNC(=O)Cc2sc(C)nc2-c2ccc(F)cc2)c(C)c1	7.0	-15.5	1.0	-0.4	6023	-2.8	-2.9
COc1ccccc1OCC#CCSc1ncccn1	-3.5	-6.1	10.3	-18.8	4653	-2.1	-14.6
COc1ccc(S(=O)(=O)NC(CC(=O)N2CCC3(CC2)OCCO3)C(C)C)cc1 (stereo unspecified)	-1.5	-7.2	3.3	-8.2	9673	-3.5	-5.3
CCOC(=O)C(=Cc1ccc(-n2cncn2)cc1)C(=O)OCC	2.6	25.5	23.5	-1.2	2466	7.5	5.5
COc1ccc(C2(C(=O)Nc3ccc(C(=O)O)cc3)CCOCC2)cc1	-0.1	/	/	-12.6	4754	-3.0	0.0
O=C(NN=Cc1cccn1-c1ccc([N+](=O)[O-])cc1)c1cccnc1	/	8.3	10.0	/	/	3.3	0.0
O=C(COc1cccnc1[N+](=O)[O-])Nc1cccc2ccccc12	/	-1.7	6.7	-14.4	4024	-2.2	-5.5
Cc1cc(=O)n2[nH]c(SCc3ccc(Cl)cc3)nc2n1	0.1	-4.3	5.9	-16.9	4075	7.2	9.3
CN1CCN(C(=O)CCN2C(=O)/C(=C/c3cccc(Br)c3)SC2=S)CC1	4.4	-4.4	15.6	-70.5	5805	0.6	-6.6
NS(=O)(=O)c1ccc(NC(=O)Nc2cccc(Cl)c2)cc1	7.7	8.0	16.9	-15.9	2770	-0.9	-9.7
O=C(CSc1nc(C2CCCCC2)nc2ccccc12)NCc1ccc2c(c1)OCO2	0.1	2.5	3.2	-18.1	2170	7.7	7.3
Cc1cc(S(=O)(=O)N2CCN(Cc3ccccc3)CC2)c(C)s1	-9.4	/	/	-11.6	5175	4.0	3.1
O=C(NN=C1CCS(=O)(=O)c2ccc(F)cc21)c1ccc(O)cc1	/	2.0	3.9	/	/	1.6	-0.4
Cc1ccc(OCCCC(=O)N2CCOCC2)c(C)c1	-11.1	/	/	-25.4	2816	4.6	5.2
CCOC(=O)CN1C2=NCCN2c2ccccc21	-4.7	/	/	-29.1	4259	4.5	-5.1
COc1ccc(CCNC(=O)c2cc3c(=O)n4cccc(C)c4nc3n(CCCN3CCOCC3)c2=N)cc1	10.4	/	/	-16.1	5733	/	/
COc1cc2c3nnc(-c4ccc(F)cc4)c-3cn(Cc3cccc(F)c3)c2cc1OC	/	9.4	3.7	-8.7	2960	4.8	-11.9
